PKD1 inh: PKD1 (human) kinase inhibition; inhibition, %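 (about 10 µM by stock and volumes)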; PKD1 kinase fluorescence polarization assay; Q15139; actives 0.056% (n = 200,000);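 active means inhibition of 50% or more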;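 further: controls were vehicle for no effect and a reference inhibitor for full effect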
INS promoter inh: TRM-6 insulin promoter activity inhibition; TRM-6 cells (human fetal islet line), insulin promoter-eGFP reporter, imaging; reporter expression induced with tamoxifen; inhibition, % at 2 µM; actives 0.9% (n = 130,000);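 active means inhibition above the mean plus 3 SD, with well images judged a real hit on visual review, cut at about 60% in these data, passing the limit was not always enough; inconclusive means inhibition over the cutoff but images rejected on review; inactive means inhibition not above the cutoff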
GALR2 agonist: agonists of human galanin receptor 2 (GALR2). actives 0.48% (n = 140,000). GALR2-expressing cells, agonist activation read-out. AID 803. activation, %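 (tested at 5 µM)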. O43603;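 active means above mean plus 3 SD of all compounds, about 5% in these data, not always enough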;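 further: 0% = vehicle buffer wells and 100% = reference agonist at full effect; tested in CHO reporter cells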
Target sequence (O43603 whole entry, looked up): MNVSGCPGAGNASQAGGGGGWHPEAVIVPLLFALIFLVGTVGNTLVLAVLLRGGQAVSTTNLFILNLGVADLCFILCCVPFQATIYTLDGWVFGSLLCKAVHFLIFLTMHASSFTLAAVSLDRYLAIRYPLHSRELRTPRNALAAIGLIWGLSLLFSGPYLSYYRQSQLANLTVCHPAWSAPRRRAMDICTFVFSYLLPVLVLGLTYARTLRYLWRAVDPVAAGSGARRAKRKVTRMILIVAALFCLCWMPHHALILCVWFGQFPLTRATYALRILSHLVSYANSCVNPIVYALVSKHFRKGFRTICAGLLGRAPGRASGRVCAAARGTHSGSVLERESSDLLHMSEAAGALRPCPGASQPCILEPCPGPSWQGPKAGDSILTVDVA
RGS16-Gao: regulators of human RGS16-Galphao interaction; AID 1441; O15492+P09471; actives 0.38% (n = 220,000); bead-based flow cytometry RGS16-Galphao binding, fluorescence; actives lie on both sides; binding response (% of control), % at 10 µM;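 active means below 25% or above 175%, edge rows of some plates excepted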;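 further: Galphao activated by GDP with aluminum fluoride before binding; 100% = wells without compound and 0% = beads without RGS; some results beyond the cut were filed as inactive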
Target sequence (O15492 whole entry, looked up): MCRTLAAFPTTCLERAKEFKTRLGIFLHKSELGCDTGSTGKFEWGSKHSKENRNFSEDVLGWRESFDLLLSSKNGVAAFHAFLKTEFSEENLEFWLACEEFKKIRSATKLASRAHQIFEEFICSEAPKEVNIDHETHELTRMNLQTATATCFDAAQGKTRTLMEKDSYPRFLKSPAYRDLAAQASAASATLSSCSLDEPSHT
Target sequence (P09471 whole entry, looked up): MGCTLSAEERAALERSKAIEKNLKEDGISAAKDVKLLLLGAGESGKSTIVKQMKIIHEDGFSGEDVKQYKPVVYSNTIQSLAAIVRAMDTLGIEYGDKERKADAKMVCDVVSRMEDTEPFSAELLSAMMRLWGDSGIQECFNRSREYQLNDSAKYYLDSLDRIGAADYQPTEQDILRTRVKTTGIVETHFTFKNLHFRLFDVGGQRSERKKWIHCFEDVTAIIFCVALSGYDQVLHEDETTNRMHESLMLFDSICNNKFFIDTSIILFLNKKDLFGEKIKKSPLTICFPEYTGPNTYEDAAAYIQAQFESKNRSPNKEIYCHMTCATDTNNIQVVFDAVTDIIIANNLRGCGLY
HSV augment: HSV replication enhancement | maximum fold increase | actives 0.005% (n = 220,000) | HSV replication augmentation in cells, fold increase | AID 1956;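 active means peak rise of 1.5-fold or more in the series; inconclusive means self-fluorescent or not available for retest; tested in PC3 cells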;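 further: first round at 10 µM; read as green reporter fluorescence; hits show the peak of a series up to 25 µM; 1 = signal of infected wells without compound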
INS promoter inh cell count: further read-out of INS promoter inh, marked with its call; normalized cell count, %; measured here: cell count, toxicity; reference of the scale not given here;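 cells exposed to compound for 48 h; stained nuclei by imaging scaled within each plate; lower means fewer cells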
HSV augment primary fold: second read-out of HSV augment, no call of its own (marks repeat the call); fold increase; compound at 10 µM; measured here: primary screen fold increase 10 uM; tested in PC3 cells;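 GFP signal in the first replicate; 1 = infected wells without compound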
Active calls of the source: *; i = inactive; ? = inconclusive; / = not tested or not shown.

A first look, two compounds:
SMILES | PKD1 inh | INS promoter inh | INS promoter inh cell count | GALR2 agonist | RGS16-Gao | HSV augment | HSV augment primary fold
CCCCNC(=O)CSc1nnc(Cc2ccccc2)n1CC1CCCO1 (stereo not given) | -1 | / | / | / | 104 | i | 1
O=C1C=C(Nc2ccc(Cl)cc2)CC(c2ccccc2)C1 (stereo not given) | 14 | 12 | 134 | -1.4 | 87 | i | 0.64

The whole of this part (from the top)
SMILES | PKD1 inh | INS promoter inh | INS promoter inh cell count | GALR2 agonist | RGS16-Gao | HSV augment | HSV augment primary fold
CCCCNC(=O)CSc1nnc(Cc2ccccc2)n1CC1CCCO1 (stereo not given) | -1 | / | / | / | 104 | i | 1
O=C1C=C(Nc2ccc(Cl)cc2)CC(c2ccccc2)C1 (stereo not given) | 14 | 12 | 134 | -1.4 | 87 | i | 0.64
Cc1cc(C)n2c(Nc3ccc4c(c3)OCCO4)c(-c3ccc(C)o3)nc2n1 | -12 | / | / | 0.2 | 100 | i | 0.86
CC1=C(OC(=O)C(C)(C)C)C(C)(C)C(c2ccccc2)OC1=O (stereo not given) | -2 | -5 | 134 | 0.0 | 99 | i | 0.99
O=C(NCCSCc1ccc(Cl)cc1)c1cccs1 | / | / | / | / | 97 | i | 0.98
CCN1C(=O)N(S(=O)(=O)C(F)(F)F)[C@@H](c2ccccc2)C(C(=O)OC)=C1C | / | / | / | / | 108 | i | 0.89
O=C(COC(=O)c1cc(NS(=O)(=O)c2cccs2)ccc1O)Nc1ccccc1 | / | / | / | / | 101 | i | 0.9
O=c1c2c(ncn1CCO)nc1n2CCC1 | -7 | 13 | 94 | -2.0 | 28 | i | 0.99
CC(C)c1c(O)nc(SCCN2CCOCC2)[nH]c1=O | -2 | 29 | 65 | -1.8 | 100 | i | 0.93
CN(C)CCNC(=O)c1cccc(NS(=O)(=O)c2ccc(Cl)c(Cl)c2)c1 | 1 | -60 | 152 | / | 98 | i | 0.8
CCN(CC1COc2ccccc2O1)S(=O)(=O)c1ccc(C)cc1 (stereo not given) | -13 | 39 | 111 | -1.0 | 99 | i | 0.96
COc1ccccc1-n1cc(C(=O)NCC(=O)N2CCN(c3ccccc3)CC2)c2ccccc2c1=O | 7 | 21 | 52 | -5.4 | 102 | i | 0.92
CC1CC(C)(C)CC2(C1)NC(=S)N(c1ccccc1)N2 (stereo not given) | 3 | -21 | 106 | -2.0 | 95 | i | 0.97
Cc1cccc(Nc2ncc3c(n2)CC(c2ccco2)CC3=O)c1 (stereo not given) | -5 | 30 | 69 | -2.0 | 102 | i | 0.98
O=C(Cn1cnc2c(oc3ccccc32)c1=O)NCCc1ccccc1 | -8 | 19 | 61 | 0.0 | / | i | 0.82

Seven records picked at random from those above:
SMILES | PKD1 inh | INS promoter inh | INS promoter inh cell count | GALR2 agonist | RGS16-Gao | HSV augment | HSV augment primary fold
CC1=C(OC(=O)C(C)(C)C)C(C)(C)C(c2ccccc2)OC1=O (stereo not given) | -2 | -5 | 134 | 0.0 | 99 | i | 0.99
Cc1cccc(Nc2ncc3c(n2)CC(c2ccco2)CC3=O)c1 (stereo not given) | -5 | 30 | 69 | -2.0 | 102 | i | 0.98
O=c1c2c(ncn1CCO)nc1n2CCC1 | -7 | 13 | 94 | -2.0 | 28 | i | 0.99
O=C(COC(=O)c1cc(NS(=O)(=O)c2cccs2)ccc1O)Nc1ccccc1 | / | / | / | / | 101 | i | 0.9
O=C1C=C(Nc2ccc(Cl)cc2)CC(c2ccccc2)C1 (stereo not given) | 14 | 12 | 134 | -1.4 | 87 | i | 0.64
O=C(NCCSCc1ccc(Cl)cc1)c1cccs1 | / | / | / | / | 97 | i | 0.98
CCCCNC(=O)CSc1nnc(Cc2ccccc2)n1CC1CCCO1 (stereo not given) | -1 | / | / | / | 104 | i | 1

More results follow:
SMILES | PKD1 inh | INS promoter inh | INS promoter inh cell count | GALR2 agonist | RGS16-Gao | HSV augment | HSV augment primary fold
CS(=O)(=O)Nc1ccc(C(=O)NC2CCCCC2)cc1 | 0 | 22 | 120 | / | 100 | i | 0.94
COc1ccc(C(=O)COC(=O)c2cc(S(=O)(=O)NCc3ccccc3)ccc2O)cc1 | 1 | / | / | / | 101 | i | 0.85
CC(C)(C)N(Cc1ccccc1)C(=O)CSc1nc2ccccc2c(=O)[nH]1 | -2 | i | 62 | -0.7 | 99 | i | 1.1
Cn1c(=O)oc2cc(S(=O)(=O)NCCN3CCc4ccccc4C3)ccc21 | -5 | / | / | -2.2 | 98 | i | 1
C=CCOc1ccc(CNc2nn[nH]n2)cc1 | -6 | 15 | 116 | -2.1 | 88 | i | 1.1
Cc1cccnc1NC(=O)c1ccc(S(=O)(=O)N2CC(C)OC(C)C2)cc1 (stereo not given) | -8 | / | / | / | 107 | i | 1
COC(=O)c1ccc(-c2nc3ccccc3[nH]2)cc1 | -3 | 64* | 125* | -1.4 | 94 | i | 1
O=[N+]([O-])c1cccc(CSc2ncnc3ccccc23)c1 | -2 | / | / | / | 102 | i | 0.87
O=C(COC(=O)c1cccnc1)Nc1cccc(Cl)c1 | 3 | / | / | -2.0 | 99 | i | 1.1
O=C(NC(=S)NCc1ccccc1)c1ccccc1 | 0 | / | / | / | 102 | i | 0.96
COCCn1c(-c2ccc(-c3ccc([N+](=O)[O-])cc3Br)o2)nc2c1c(=O)[nH]c(=O)n2CC(C)C | -2 | -114 | 65 | / | 96 | i | 1
COC(=O)c1n[nH]n(-c2cc(Cl)cc(Cl)c2)c1=O | / | / | / | / | 102 | i | 0.87
CCOC(=O)C1CCN(C(=S)Nc2cc(C)ccc2C)CC1 | 1 | / | / | -0.6 | 103 | i | 1
Cn1c(SCC(=O)NCc2cccs2)nnc1-c1ccc(S(=O)(=O)N2CCCC2)cc1 | 49 | -31 | 167 | -3.3 | 101 | i | 1.3
CCN(CC)CCNC(=O)CCCNC(=O)Cn1cnc2sc(C)c(C)c2c1=O | 5 | -36 | 121 | -2.2 | 98 | i | 1
O=C(CCCNS(=O)(=O)c1cccc2nsnc12)NCCN1CCN(c2ccccc2F)CC1 | -4 | / | / | / | 106 | i | 0.9
NC(CO)(CO)COCc1ccccc1 | 0 | / | / | / | 96 | i | 1
CCN(CC)S(=O)(=O)c1cc([N+](=O)[O-])ccc1N1CCC(C(N)=O)CC1 | -6 | / | / | / | 100 | i | 0.91
CC1=C(C(=O)OCc2ccccc2)C(c2ccsc2)NC(=O)N1C (stereo not given) | -3 | -5 | 107 | / | 102 | i | 1.1
CCC(C)NC(=O)CS(=O)(=O)Cc1nc(-c2cccc(OC)c2)oc1C (stereo not given) | -8 | / | / | -1.9 | 102 | i | 0.87
COc1ccc(CNC(=S)N/N=C(/C)c2ccccc2)cc1 | / | / | / | / | 99 | i | 0.99
Clc1ccc(Nc2ncnc3c2cnn3-c2ccccc2)cc1 | 3 | / | / | -1.9 | 104 | i | 0.91
CN(Cc1ccccc1)C(=O)C(C(=O)c1ccc(F)cc1)n1cc(Cl)ccc1=O (stereo not given) | -7 | -41 | 65 | / | 105 | i | 1.1
O=C(O)C1Cc2ccccc2CN1C(=O)COc1ccc(Br)cc1 (stereo not given) | -10 | 18 | 117 | / | 100 | i | 1
CC(C)(C)c1cc(CCC(=O)NN)cc(C(C)(C)C)c1O | -1 | / | / | / | 103 | i | 1.2
CCN(CC)S(=O)(=O)c1ccc(N2CCCC2)c(NC(=O)C2CCCCC2)c1 | / | / | / | / | 100 | i | 1
COc1ccc(CC2S/C(=C(\C#N)C(=O)NCc3ccco3)N(c3ccc(C)cc3)C2=O)cc1 (stereo not given) | 1 | 0 | 115 | -2.5 | 111 | i | 1
CCn1ncc(NC(=S)Nc2ccc(OC)c(OC)c2)c1C(N)=O | -3 | -5 | 120 | / | 111 | i | 1
O=C1OCCC1Sc1nnc(-c2cccnc2)n1-c1ccccc1F (stereo not given) | 0 | 14 | 125 | / | 100 | i | 1
CCC(C)NC(=O)Cn1c(=O)n(-c2ccccc2)c(=O)c2ccc(C(=O)NCc3ccco3)cc21 (stereo not given) | 3 | 29 | 60 | -2.7 | 102 | i | 0.98
O=C(/C=C/c1ccc(O)cc1)OCc1occc(=O)c1O[C@@H]1OC(CO)[C@@H](O)[C@H](O)[C@@H]1O (stereo not given in full) | -4 | 5 | 107 | -0.9 | 104 | i | 0.86
COc1ccc(C(c2c(NC(=O)c3ccccc3)sc(C)c2C)N2CCN(CCO)CC2)cc1 (stereo not given) | 0 | -24 | 35 | 0.3 | 136 | i | 0.86
Cc1cc(SCC#N)n2nc(C)c(-c3ccc(Cl)cc3)c2n1 | -8 | -21 | 90 | -0.1 | 109 | i | 0.66
CNS(=O)(=O)c1cccc(C(=O)OCc2cc(Cl)cc3c2OCOC3)c1 | -3 | / | / | -0.9 | 98 | i | 0.96
Cc1ccc2c(Cl)c(C(=O)NCC3CCCO3)sc2c1 (stereo not given) | 5 | / | / | -1.7 | 100 | i | 0.97
O=C(CSc1nnc(CCCO)n1-c1ccccc1)NCCc1ccccc1 | -14 | -260 | 73 | -0.3 | 0.4* | i | 0.98
N#C/C(=C\Nc1ccccc1SC(F)(F)F)c1nc(-c2ccccc2)cs1 | 6 | -4 | 93 | 0.4 | 100 | i | 1.1
CC(NS(=O)(=O)c1ccccc1)C(c1cccs1)N1CCOCC1 (stereo not given) | -4 | 2 | 103 | 0.5 | 146 | i | 0.84
CCOc1ccccc1N(CC(=O)Nc1ccccc1C(=O)O)S(C)(=O)=O | 2 | / | / | -3.0 | 98 | i | 1
Cc1c(C=C2C(=O)c3ccccc3C2=O)cc(C#N)n1C | / | / | / | / | 109 | i | 1
CC(C)NC(=O)c1ccc(-c2ccc(Cl)c(C(F)(F)F)c2)o1 | -8 | 10 | 114 | -1.1 | 92 | i | 1
COc1ccccc1C(=O)CSc1ccccn1 | -6 | -24 | 118 | / | 99 | i | 1.1
CCOc1ccc(N2C(N)=NC(N)=NC2(C)C)cc1 | -9 | 0 | 108 | -3.0 | 95 | i | 1
O=C(CCO)c1ccc(O)cc1 | 0 | / | / | / | 96 | i | 1.1
COCCNC(=O)CCSCc1ccccc1F | -3 | 26 | 126 | -0.9 | 102 | i | 1
Cn1cccc1Cc1nnc(SCC(=O)NCc2ccco2)n1-c1ccc(F)cc1 | 6 | -27 | 72 | -1.6 | 90 | i | 0.82
Clc1ccccc1-c1cc(COc2ccc3ccccc3c2)no1 | -10 | 20 | 60 | 0.2 | 90 | i | 1
O=C(NC(=S)NCc1cccnc1)c1ccccc1 | 1 | 19 | 77 | -1.3 | 104 | i | 0.73
Cc1c(-c2n[nH]c(=S)n2-c2ccc(C(F)(F)F)cc2)nnn1-c1ccccc1 | -3 | 18 | 122 | 0.1 | 103 | i | 1.1
CCCCN1CCc2c([nH]c3c(C)cccc23)C1=O | 0 | -22 | 147 | -1.1 | 98 | i | 0.81
CCOC(=O)C1(CCCc2ccccc2)CCN(C(=O)CN2CCOC2=O)CC1 | -7 | / | / | / | 98 | i | 0.99
Cn1ncc(Br)c1N1C(=O)CCC1=O | / | / | / | / | 97 | i | 1.1
CCOC(=O)c1nsnc1NCCSC(=N)N | -3 | -8 | 131 | -0.5 | 47 | i | 0.96
NNC(=O)c1cc(-c2cccs2)nc2ccccc12 | / | / | / | / | 99 | i | 0.92
Cc1ccccc1NC(=O)Cn1nnc(C(=O)NCc2ccco2)c1N | -4 | 25 | 100 | / | 113 | i | 0.84
COCCNC(=O)COC(=O)c1cc(-c2ccc(OC)cc2)nc2ccccc12 | -4 | / | / | / | 98 | i | 0.91
CC1CCN(c2nc(-c3ccccc3)cc(C(F)(F)F)n2)CC1 | -2 | 33 | 103 | -2.6 | 102 | i | 0.89
COc1ccc2c(C)cc(SCC(=O)N3CCOCC3)nc2c1 | 2 | / | / | -2.2 | 102 | ? | /
COc1ccc(CCNC(=O)C23CCC(C)(C(=O)C2Br)C3(C)C)cc1OC (stereo not given) | / | / | / | / | 106 | i | 1.1
CCOC(=O)c1ccc(N=C2NC(=O)CS2)cc1 | -3 | 30 | 129 | -3.0 | 110 | i | 0.9

The list goes on.
SMILES | PKD1 inh | INS promoter inh | INS promoter inh cell count | GALR2 agonist | RGS16-Gao | HSV augment | HSV augment primary fold
COc1ccc(S(=O)(=O)N2CCN(c3c(C)cccc3C)CC2)cc1OC | -13 | / | / | -2.0 | 105 | i | 1
COc1ccccc1-c1coc2cc(OC(=O)N3CCOCC3)ccc2c1=O | / | / | / | / | 105 | i | 0.76
CC1=C(C(=O)N2CCN(C(=O)c3ccco3)CC2)C2(CCC(C)CC2)OC1=O (stereo not given) | -9 | / | / | -1.7 | 108 | i | 1.1
O=C(O)COc1ccccc1/C=N/NC(=O)CN1CCN(S(=O)(=O)c2ccc(Br)cc2)CC1 | / | / | / | / | 95 | i | 1.1
NC(=O)c1cc2cc(Cl)ccc2oc1=Nc1cccc(C(F)(F)F)c1 | -4 | 12 | 160 | 0.2 | 69 | / | /

Compound activity from PubChem.
